UUG fidelity: modulators of yeast start codon fidelity, primary screen, whole organism, S. cerevisiae, single point, plate reader | activity score, % at 18.7 µM | S. cerevisiae UUG-firefly luciferase reporter, luminescence/redox ratio | AID 602363, 2012 | actives 0.13% (n = 350,000);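 active means replicate mean at a twofold rise or more, about +100% in these data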;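 further: firefly luciferase made from a UUG start codon reports start codon fidelity; reporter light over untreated wells divided by growth signal over untreated wells; some hits fall short of that in this replicate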
HIV Env fusion: inhibitors of HIV-1 Env-driven cell-cell fusion, primary screen, HeLa-JRFL effector, CEM21 target cells, luciferase. actives 1.1% (n = 360,000). inhibition, % at 12.3 µM;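 active means mean replicate inhibition score of at least 50 and every replicate individually at or above 50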;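 further: 0% = plate neutral controls and 100% = maraviroc near 300 nM; one replicate is shown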
Active calls of the source: *; [ ] = another dose, or the depositor's remark.

canonical_smiles	UUG fidelity	HIV Env fusion
CO[C@H]1CN(C)C(=O)c2cc(NC(C)=O)ccc2OC[C@@H](C)N(C(=O)CN(C)C)C[C@@H]1C	-3	-2[16.7 µM]
C[C@@H]1CCCCO[C@@H](CN(C)C(=O)NC2CCCCC2)[C@@H](C)CN([C@@H](C)CO)C(=O)c2cc(NC(=O)Nc3cccc4ccccc34)ccc2O1	13	3[16.7 µM]
Cc1noc(C)c1S(=O)(=O)N(C)C[C@H]1OCCCC[C@@H](C)Oc2ccc(NC(=O)NC3CCCCC3)cc2C(=O)N([C@@H](C)CO)C[C@@H]1C	13	-6[16.7 µM]
O=C(C[C@@H]1C[C@@H]2c3cc(NC(=O)NC4CCCC4)ccc3O[C@@H]2[C@@H](CO)O1)NCCc1ccccc1	-1	-13[16.7 µM]
COc1ccc(-c2ccc([C@H]3[C@@H](CO)N(C(=O)CN(C)C)[C@H]3C#N)cc2)cc1	-3	-5[16.7 µM]
CCNC(=O)C[C@@H]1CC[C@H]2[C@H](COc3ccc(NC(=O)c4cccc(OC)c4)cc3C(=O)N2C)O1	-1	13[16.7 µM]
Cc1noc(C)c1NC(=O)Nc1ccc2c(c1)C(=O)N([C@@H](C)CO)C[C@H](C)[C@H](CN(C)S(=O)(=O)c1ccc(F)cc1)OCCCC[C@H](C)O2	32	55*[16.7 µM]
CO[C@H]1CN(C)C(=O)c2ccc(NC(=O)c3ccc(F)cc3)cc2OC[C@H](C)NC[C@H]1C	-6	5[16.7 µM]
Cc1noc(C)c1NC(=O)N[C@H]1CC[C@H](CCNC(=O)C2CCCCC2)O[C@H]1CO	-8	2[16.7 µM]
C[C@@H]1CN([C@H](C)CO)C(=O)c2cc(C#CCN(C)C)cnc2O[C@@H]1CN(C)C(=O)c1cccc(F)c1	0	-1[16.7 µM]
COc1ccc(S(=O)(=O)Nc2ccc3c(c2)C(=O)N([C@@H](C)CO)C[C@@H](C)[C@@H](CN(C)S(=O)(=O)c2cccs2)OCCCC[C@@H](C)O3)cc1	13	-46[16.7 µM]
O=C(N[C@@H]1CC[C@H](CCNC(=O)C2CCCCC2)O[C@@H]1CO)c1ccncc1	-10	0[16.7 µM]
C[C@@H]1CN([C@H](C)CO)C(=O)c2cc(C#CC3CCCCC3)cnc2O[C@H]1CN(C)Cc1ccncc1	-9	17[16.7 µM]
Cc1ccc(S(=O)(=O)N(C)C[C@H]2Oc3cc(C4=CCCC4)ccc3S(=O)(=O)N([C@H](C)CO)C[C@@H]2C)cc1	-5	43[16.7 µM]
O=C(C[C@@H]1CC[C@@H](NS(=O)(=O)c2cccc(F)c2)[C@H](CO)O1)N1CCCCC1	-9	10[16.7 µM]
C[C@@H]1CCCCO[C@@H](CN(C)S(=O)(=O)c2ccc(F)cc2)[C@@H](C)CN([C@@H](C)CO)C(=O)c2cc(NC(=O)CCC(F)(F)F)ccc2O1	13	-6[16.7 µM]
CN1C(=O)c2cc(NC(=O)c3cccs3)ccc2OC[C@H]2O[C@H](CC(=O)NCC3CC3)CC[C@@H]21	6	-5[16.7 µM]
CC(C)NC(=O)N(C)C[C@@H]1Oc2ccc(NC(=O)C3CCCCC3)cc2CC(=O)N([C@H](C)CO)C[C@@H]1C	0	-6[16.7 µM]
C[C@@H]1CCCCO[C@@H](CN(C)C)[C@@H](C)CN([C@H](C)CO)C(=O)c2cc(NC(=O)c3ccccc3)ccc2O1	-9	13[16.7 µM]
C[C@@H]1CN([C@@H](C)CO)C(=O)c2cc(NS(=O)(=O)c3cccs3)ccc2O[C@@H](C)CCCCO[C@H]1CN(C)C(=O)Cc1ccccc1	11	-7[16.7 µM]

Next results.
canonical_smiles	UUG fidelity	HIV Env fusion
C[C@@H]1CN([C@H](C)CO)C(=O)c2cc(NC(=O)Nc3ccc(F)cc3)ccc2O[C@@H](C)CCCCO[C@H]1CN(C)C	34	7[16.7 µM]
O=C(C[C@H]1C[C@H]2c3cc(NC(=O)Nc4ccccc4F)ccc3O[C@H]2[C@H](CO)O1)NCc1ccc(Oc2ccccc2)cc1	-11	12[16.7 µM]
C[C@H]1CN([C@@H](C)CO)S(=O)(=O)c2ccc(-c3cncnc3)cc2O[C@@H]1CN(C)Cc1ccccn1	1	-3[16.7 µM]
Cc1noc(C)c1NC(=O)N[C@H]1CC[C@@H](CCNC(=O)C2CCOCC2)O[C@H]1CO	-1	4[16.7 µM]
COCC(=O)Nc1ccc2c(c1)C(=O)N(C)[C@H]1CC[C@@H](CC(=O)NCc3ccc(OC)cc3)O[C@@H]1CO2	-8	-11[16.7 µM]
C[C@@H]1CN([C@@H](C)CO)C(=O)c2cc(NC(=O)Nc3ccccc3)ccc2O[C@@H](C)CCCCO[C@H]1CN(C)Cc1ccc(C(=O)O)cc1	-1	14[16.7 µM]
C[C@@H]1CN([C@H](C)CO)C(=O)c2cccc(NC(=O)Nc3ccc(F)cc3)c2O[C@@H]1CN(C)CC1CC1	3	2[16.7 µM]
C[C@@H]1CCCCO[C@@H](CN(C)C(=O)c2ccncc2)[C@@H](C)CN([C@@H](C)CO)C(=O)c2cc(NC(=O)CCC(F)(F)F)ccc2O1	4	-4[16.7 µM]
COc1cccc(-c2ccc3c(c2)O[C@H](CN(C)C(=O)C2CC2)[C@H](C)CN([C@@H](C)CO)S3(=O)=O)c1	-1	29[16.7 µM]
C[C@H]1CN([C@@H](C)CO)C(=O)c2cc(NS(=O)(=O)c3cccs3)ccc2O[C@H]1CN(C)Cc1ccc(C(=O)O)cc1	-8	12[16.7 µM]
C[C@@H]1CN([C@@H](C)CO)C(=O)c2cc(/C=C/c3ccccc3)cnc2O[C@H]1CN(C)C(=O)c1ccc2c(c1)OCO2	12	-10[16.7 µM]
CN(C)CC(=O)N1[C@H](C#N)[C@@H](c2ccc(C#CC3CC3)cc2)[C@@H]1CO	12	-7[16.7 µM]
COc1ccccc1-c1ccc2c(c1)O[C@@H](CN(C)C(=O)c1ccncc1)[C@H](C)CN([C@H](C)CO)S2(=O)=O	-2	-3[16.7 µM]
COc1ccc(NC(=O)N(C)C[C@H]2Oc3ccc(NS(=O)(=O)c4cn(C)cn4)cc3CC(=O)N([C@@H](C)CO)C[C@@H]2C)cc1	-6	-14[16.7 µM]
C[C@@H]1CN([C@@H](C)CO)C(=O)c2cccc(NC(=O)Nc3ccc(F)cc3)c2O[C@@H]1CN(C)Cc1ccncc1	-3	-19[16.7 µM]
C[C@@H]1CN([C@H](C)CO)S(=O)(=O)c2ccc(C#Cc3ccccc3)cc2O[C@H]1CN(C)S(C)(=O)=O	2	28[16.7 µM]
O=C(C[C@H]1C[C@H]2c3cc(NC(=O)Cc4ccncc4)ccc3O[C@H]2[C@H](CO)O1)NCC1CC1	-5	-15[16.7 µM]
Cc1ccccc1S(=O)(=O)N1[C@H](C#N)[C@H](c2ccccc2)[C@H]1CO	-8	25[16.7 µM]
C[C@@H](NC(=O)C[C@H]1C=C[C@@H](NC(=O)c2cccnc2)[C@@H](CO)O1)c1ccccc1	-10	6[16.7 µM]
CC(C)NC(=O)N[C@H]1C=C[C@H](CC(=O)O)O[C@H]1CO	-4	7[16.7 µM]

(listing goes on)
Second line of a record: UUG fidelity, HIV Env fusion
> CO[C@@H]1CN(C)C(=O)c2ccc(NC(=O)Nc3ccc(F)cc3)cc2OC[C@H](C)NC[C@@H]1C
  2, -14[16.7 µM]
> Cc1noc(C)c1NC(=O)N(C)C[C@@H]1OCCCC[C@@H](C)Oc2ccc(NC(=O)CCC(F)(F)F)cc2C(=O)N([C@H](C)CO)C[C@H]1C
  -9, -12[16.7 µM]
> CCCC#Cc1ccc2c(c1)O[C@@H](CN(C)C(=O)c1cccnc1)[C@@H](C)CN([C@H](C)CO)S2(=O)=O
  -6, 0[16.7 µM]
> COc1cccc(S(=O)(=O)N[C@@H]2CC[C@H](CC(=O)NCc3ccccc3)O[C@@H]2CO)c1
  -7, -2[16.7 µM]
> COc1ccc(S(=O)(=O)N(C)C[C@@H]2OCCCC[C@H](C)Oc3ccc(NS(=O)(=O)c4ccc(F)cc4)cc3C(=O)N([C@H](C)CO)C[C@H]2C)cc1
  16, -5[16.7 µM]
> CC(C)NC(=O)Nc1ccc2c(c1)C(=O)N([C@H](C)CO)C[C@H](C)[C@H](CN(C)Cc1ccc(Cl)c(Cl)c1)O2
  5, 12[16.7 µM]
> O=C(NCC[C@H]1CC[C@@H](NC(=O)C2CCC2)[C@H](CO)O1)c1ccc(F)cc1
  4, -5[16.7 µM]
> C[C@@H]1CCCCO[C@@H](CN(C)C(=O)C2CCCCC2)[C@@H](C)CN([C@@H](C)CO)C(=O)c2cc(NC(=O)c3ccccc3)ccc2O1
  11, -28[16.7 µM]
> CC(C)CC#Cc1ccc2c(c1)O[C@@H](CN(C)C(=O)c1ccncc1)[C@@H](C)CN([C@H](C)CO)S2(=O)=O
  -26, -8[16.7 µM]
> O=C(CCN1CCCCC1)N[C@H]1CC[C@@H](CCNS(=O)(=O)c2ccc(F)cc2)O[C@@H]1CO
  -2, -13[16.7 µM]

The listing continues.
Second line of a record: UUG fidelity, HIV Env fusion
> Cc1ccc(S(=O)(=O)N(C)C[C@@H]2OCCCC[C@H](C)Oc3ccc(NC(=O)Nc4ccc(F)cc4)cc3C(=O)N([C@@H](C)CO)C[C@@H]2C)cc1
  -3, 18[16.7 µM]
> CC(C)C#Cc1cnc2c(c1)C(=O)N([C@H](C)CO)C[C@H](C)[C@@H](CN(C)C(=O)Nc1ccccc1F)O2
  11, 7[16.7 µM]
> COc1ccc(CN(C)C[C@@H]2OCCCC[C@@H](C)Oc3ccc(NS(C)(=O)=O)cc3C(=O)N([C@H](C)CO)C[C@@H]2C)cc1
  9, -13[16.7 µM]
> C[C@@H]1CCCCO[C@H](CN(C)C)[C@@H](C)CN([C@H](C)CO)C(=O)c2cc(NC(=O)CCC(F)(F)F)ccc2O1
  -4, -4[16.7 µM]
> COc1ccc(NC(=O)N[C@H]2CC[C@@H](CCNC(=O)Cc3ccncc3)O[C@H]2CO)cc1
  -6, -7[16.7 µM]
> CC(C)CC#Cc1ccc2c(c1)O[C@@H](CN(C)C(=O)C1CCOCC1)[C@H](C)CN([C@@H](C)CO)S2(=O)=O
  30, -20[16.7 µM]
> COc1ccc(NC(=O)N(C)C[C@@H]2OCCCC[C@@H](C)Oc3ccc(NC(=O)Nc4ccc5c(c4)OCO5)cc3C(=O)N([C@H](C)CO)C[C@H]2C)cc1
  -1, -10[16.7 µM]
> COc1ccc(CN(C)C[C@H]2OCCCC[C@@H](C)Oc3ccc(NC(=O)NC4CCCCC4)cc3C(=O)N([C@H](C)CO)C[C@@H]2C)cc1
  4, -1[16.7 µM]
> CO[C@H]1CN(C)C(=O)c2ccc(NC(=O)Nc3cccc(Cl)c3)cc2OC[C@@H](C)NC[C@@H]1C
  2, 0[16.7 µM]
> C[C@H]1CN([C@@H](C)CO)C(=O)Cc2cc(NS(=O)(=O)c3ccc(F)cc3)ccc2O[C@@H]1CN(C)S(=O)(=O)c1ccccc1
  0, 4[16.7 µM]

Later entries:
Second line of a record: UUG fidelity, HIV Env fusion
> COc1cccc(S(=O)(=O)N(C)C[C@H]2Oc3cc(C4=CCCC4)ccc3S(=O)(=O)N([C@@H](C)CO)C[C@@H]2C)c1
  -9, -9[16.7 µM]
> COc1ccc(-c2ccc3c(c2)O[C@@H](CN(C)CC2CC2)[C@@H](C)CN([C@H](C)CO)S3(=O)=O)cc1
  -10, -4[16.7 µM]
> Cc1ccc(S(=O)(=O)N(C)C[C@H]2Oc3ccc(NS(=O)(=O)c4ccc(F)cc4)cc3C(=O)N([C@H](C)CO)C[C@@H]2C)cc1
  4, -20[16.7 µM]
> COc1ccc(NC(=O)Nc2ccc3c(c2)C(=O)N([C@H](C)CO)C[C@H](C)[C@H](CN(C)S(C)(=O)=O)OCCCC[C@H](C)O3)cc1
  -5, 2[16.7 µM]
> COc1ccc(NC(=O)Nc2ccc3c(c2)CC(=O)N([C@H](C)CO)C[C@@H](C)[C@@H](CN(C)C(=O)Nc2ccc4c(c2)OCO4)O3)cc1
  0, -14[16.7 µM]
> CC(=O)N(C)C[C@H]1Oc2ncc(-c3cccc(C#N)c3)cc2C(=O)N([C@@H](C)CO)C[C@@H]1C
  -1, 5[16.7 µM]
> COc1ccc(CN(C)C[C@@H]2OCCCC[C@H](C)Oc3ccc(NS(=O)(=O)c4cn(C)cn4)cc3C(=O)N([C@H](C)CO)C[C@H]2C)cc1
  8, -31[16.7 µM]
> C[C@H](CO)N1C[C@H](C)[C@H](CN(C)S(C)(=O)=O)OCCCC[C@H](C)Oc2ccc(NC(=O)Nc3ccc(F)cc3)cc2C1=O
  -7, 9[16.7 µM]

Rewritten with values ahead of the structure: part of the list above
UUG fidelity	HIV Env fusion	SMILES
-10	-4[16.7 µM]	COc1ccc(-c2ccc3c(c2)O[C@@H](CN(C)CC2CC2)[C@@H](C)CN([C@H](C)CO)S3(=O)=O)cc1
4	-20[16.7 µM]	Cc1ccc(S(=O)(=O)N(C)C[C@H]2Oc3ccc(NS(=O)(=O)c4ccc(F)cc4)cc3C(=O)N([C@H](C)CO)C[C@@H]2C)cc1
-5	2[16.7 µM]	COc1ccc(NC(=O)Nc2ccc3c(c2)C(=O)N([C@H](C)CO)C[C@H](C)[C@H](CN(C)S(C)(=O)=O)OCCCC[C@H](C)O3)cc1
0	-14[16.7 µM]	COc1ccc(NC(=O)Nc2ccc3c(c2)CC(=O)N([C@H](C)CO)C[C@@H](C)[C@@H](CN(C)C(=O)Nc2ccc4c(c2)OCO4)O3)cc1
-1	5[16.7 µM]	CC(=O)N(C)C[C@H]1Oc2ncc(-c3cccc(C#N)c3)cc2C(=O)N([C@@H](C)CO)C[C@@H]1C
8	-31[16.7 µM]	COc1ccc(CN(C)C[C@@H]2OCCCC[C@H](C)Oc3ccc(NS(=O)(=O)c4cn(C)cn4)cc3C(=O)N([C@H](C)CO)C[C@H]2C)cc1

A portion of the library; the hit share may differ from the screen's.
